Arbovirus inh: blocks arbovirus infection. arbovirus infection cell-based antiviral screen. inhibition, % at 10 µM. 200,000 tested, 0.37% active. AID 1251;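 active = inhibition from about 30%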;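 note: bluetongue infection of BSR cells; cell survival read as ATP light after 72 h; 0% = infected wells without compound and 100% = uninfected wells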
Mtb growth: M. tuberculosis H37Rv growth inhibitors, H37Rv strain (AID 1626); 220,000 tested, 0.95% active; M. tuberculosis H37Rv growth inhibition; higher % means a stronger effect; inhibition, % at 10 µM; hits with a dose series show IC50 in µM;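 active = confirmed in a dose series; inconclusive = inhibition above 80% but not taken into the dose series; inactive = below 80% or under 30% at every dose of the series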;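 note: bacteria incubated seven days before Alamar blue readout; 0% = bacteria only wells and 100% = bacteria with antibiotic wells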
YopH inh: inhibitors of Yersinia enterocolitica YopH tyrosine phosphatase; fluorescence Ex485/Em525; inhibition, %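 (about 10 µM by stock and volumes)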; 140,000 tested, 0.16% active;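 active = inhibition of 50% or more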;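 note: controls were vehicle for no effect and minimum signal wells for full effect; inactives centre near -20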
Mtb betalactam: beta-lactam sensitization of Mtb H37Rv; M. tuberculosis H37Rv growth with meropenem, percent inhibition; hits of this screen are not shown here; inhibition, % at 25 µM; 330,000 tested, 0.27% active; AID 434955;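 active = about 74% or more and at least 40 points above the plate without the antibiotic, then above 30% in a dose series; inconclusive = first-round hits that could not be retested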;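 note: growth measured after seven days incubation then overnight dye step; 0% = bacteria only wells and 100% = bacteria with antibiotic; twin plates without the antibiotic show which effects depend on it; some results filed as inactive read as strong as hits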
RecA splice inh: inhibitors of M. tuberculosis RecA intein splicing; P9WHJ3; inhibition, %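 (about 9 µM by stock and volumes)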; 290,000 tested, 0.75% active; cell-free RecA intein splicing, fluorescence; in the data active = inhibition above about 30%; inconclusive = no clear call, values can overlap the other calls;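 note: 0% = vehicle wells and 100% = reference inhibitor control wells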
Target sequence (P9WHJ3 whole entry, looked up, canonical isoform): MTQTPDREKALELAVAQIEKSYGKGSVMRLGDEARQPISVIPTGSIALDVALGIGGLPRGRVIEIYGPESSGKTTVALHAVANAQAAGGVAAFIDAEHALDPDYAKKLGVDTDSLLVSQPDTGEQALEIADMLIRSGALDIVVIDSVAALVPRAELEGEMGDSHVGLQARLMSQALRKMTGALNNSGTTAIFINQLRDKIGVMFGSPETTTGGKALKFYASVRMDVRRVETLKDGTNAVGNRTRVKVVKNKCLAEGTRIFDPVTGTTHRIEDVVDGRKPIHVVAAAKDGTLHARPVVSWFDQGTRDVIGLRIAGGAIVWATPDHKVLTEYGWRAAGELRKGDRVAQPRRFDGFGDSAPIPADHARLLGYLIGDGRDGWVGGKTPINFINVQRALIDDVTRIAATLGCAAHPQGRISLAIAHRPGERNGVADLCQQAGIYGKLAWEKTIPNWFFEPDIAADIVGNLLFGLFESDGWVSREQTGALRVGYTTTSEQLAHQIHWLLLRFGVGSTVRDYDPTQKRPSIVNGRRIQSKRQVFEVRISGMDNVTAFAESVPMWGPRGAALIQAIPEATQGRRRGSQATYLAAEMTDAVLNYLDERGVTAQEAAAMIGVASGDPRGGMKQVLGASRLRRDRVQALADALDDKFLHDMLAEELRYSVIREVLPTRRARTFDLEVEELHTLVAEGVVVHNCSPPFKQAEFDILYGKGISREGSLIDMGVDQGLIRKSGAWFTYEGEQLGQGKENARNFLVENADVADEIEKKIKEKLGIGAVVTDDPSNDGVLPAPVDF
Arbovirus inh repeat: also measured in Arbovirus inh; calls as there; inhibition, %; measured here: 10K subset replicate screen; many hits read low in the repeat;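 first of two repeat runs on a subset; 0% = infected and 100% = uninfected wells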
* marks the source's active call; other numbers are inactive results; ? = inconclusive; . = no result given; & = joins results of further samples. Only part of the results is shown. The share of hits here may be higher or lower than overall.

SMILES	Arbovirus inh	Mtb growth	YopH inh	Mtb betalactam	RecA splice inh	others
Cc1[nH]nc2c1C(c1c[nH]c3ccccc13)C(C#N)=C(N)O2 (stereo not given)	.	-3%	.	1	90*
CN(C)C=C1C(=O)N(C2CCCCC2)C(=O)N(C2CCCCC2)C1=O	6	-3%	-27	40	2.4
COc1ccc(-c2cc(C(F)(F)F)nc(NCc3cccs3)n2)cc1	-2	1%	-36	?	-0.4
CCc1ccc(C2C3=C(CC(C)(C)CC3=O)Nc3c2c(=O)[nH]c2nc(C)nn32)cc1 (stereo not given)	8	0%	-20	3	-12
CCc1c(C)c2ccc(OCC(N)=O)cc2oc1=O	-5	-2%	5	1	.
Cc1ccc2oc(C(=O)Nc3nonc3C)c(C)c2c1	.	.	.	-6	-0.3
Cc1cc(C)n2nc(SCC(=O)Nc3ccccc3C)nc2n1	.	.	.	3	-4.5
Cc1nc2c(cnn2-c2ccccc2)c(=O)[nH]1	6	2%	.	-7	-4.2
CCOc1ccc(N(C(C)C(=O)Nc2ccc(OC)cc2)S(C)(=O)=O)cc1 (stereo not given)	2	-3%	-3	9	4.4	Arbovirus inh repeat=-2
COC(=O)c1c(C)[nH]c(C)c1-c1ccccc1Cl	-4	6%	-44	28	2.2

Reprinted from the part before: two entries; new compounds follow.
SMILES	Arbovirus inh	Mtb growth	YopH inh	Mtb betalactam	RecA splice inh	others
CCOc1ccc(N(C(C)C(=O)Nc2ccc(OC)cc2)S(C)(=O)=O)cc1 (stereo not given)	2	-3%	-3	9	4.4	Arbovirus inh repeat=-2
COC(=O)c1c(C)[nH]c(C)c1-c1ccccc1Cl	-4	6%	-44	28	2.2
Cc1cccc(Nc2nnc(SCC3CCCCO3)s2)c1C (stereo not given)	-6	13%	-10	8	0.5
Cc1cc(Nc2cccc(C(=O)O)c2)n2ncnc2n1	.	.	.	2	0.4
COc1ccc(N2C(=O)CN(Cc3ccc(OC)c(OC)c3)C2=S)cc1	-5	12%	.	2	0.4
Nc1nc(-c2cc3c(cc2Cl)OCCO3)cs1	.	.	.	7	3.0
COc1cc(C2=CCN(C(C)=O)CC2)ccc1OC(C)=O	.	-3%	.	-10	-3.3
Cc1ccccc1CC(=O)N1CCN(C(=O)c2ccco2)CC1	.	.	.	-6	-0.8
O=C(O)C1=C[C@H](c2ccccc2)C[C@H](OCCCCO)O1	.	-9%	.	-4	-0.6
CCCCc1ccc(Nc2nc(CCC)cc(=O)[nH]2)cc1	-43	10%	-25	31	3.8
CCCn1c(SCC(=O)Nc2c(CC)cccc2CC)nnc1C(C)C	-7	-4%	-18	-5	0.3
O=S1(=O)CCC(NS(=O)(=O)c2cccc3cccnc23)C1 (stereo not given)	6	-7%	29	0	-0.5
O=C(NCC1CCCO1)c1ccc2c(=O)n(CCc3ccccc3)c(=O)[nH]c2c1 (stereo not given)	6	1%	-44	-7	1.4	Arbovirus inh repeat=-4
COc1cc(NC(=O)c2cccc(C)c2)ccc1NC(=O)c1cc2ccccc2o1	.	.	.	-6	-16
O=C(O)CSc1nnc(COc2ccc([N+](=O)[O-])cc2)n1-c1ccccc1	3	-12%	.	-1	2.0
CCn1c(SCC(=O)NC(=O)NC(C)(C)C)nc2ccccc21	-6	7%	.	3	0.4
COCCCNC(=O)[C@H](Cc1c[nH]c2ccccc12)NC(=O)OCc1ccccc1	.	.	.	-2	0.4
COc1ccc(/C(N)=N/OC(=O)Cc2ccccc2[N+](=O)[O-])cc1	-4	1%	-17	-6	1.3
O=C(NCc1ccco1)c1ccc(C(=O)NCc2ccco2)s1	-5	-1%	-4	-2	3.7
CSc1ccc(S(=O)(=O)NCC(=O)OCC(=O)N(Cc2ccccc2)C(C)C)cc1[N+](=O)[O-]	.	.	.	-4	2.9
Cc1cc(C(F)F)n2ncc(C(=O)O)c2n1	5	0%	-29	-5	2.3
Cc1ccc(/C(N)=N/OC(=O)c2ccco2)cc1	-6	-6%	12	3	1.6
O=C(Oc1ccc2c3c(c(=O)oc2c1)CCC3)c1ccco1	1	43%	-26	90	.
Cc1cc(N2C(=O)C3CCCN3C2c2sccc2C)no1 (stereo not given)	-1	1%	-34	4	-4.0
Cc1ccc(OCCOC(=O)c2sc(=S)n(C)c2C)cc1	8	10%	.	2	-1.7
Cc1cc(OCCCN2CCCC2)ccc1Cl	.	.	.	-7	0.0
Nc1nnc(Cc2ccc(Cl)cc2)s1	3	10%	-25	25	8.4
COc1ccc(-c2cc(C(=O)N3CCN(S(=O)(=O)c4ccc(C)cc4)CC3)[nH]n2)cc1	.	.	.	?	-1.1
CC(C)C(=O)Nc1cccc(NC(=O)c2cccc(Br)c2)c1	-9	10%	.	2	0.8
Cc1nn(Cc2ccc(F)cc2)c(Cl)c1/C=N/NC(=O)c1cccnc1	13	4%	-26	0	-0.9
Cc1snc(S(=O)(=O)/C(C#N)=N/Nc2cccc(C(F)(F)F)c2)c1C#N	15	-6%	-35	-5	-32
COc1cc(NC(=O)Cc2ccccc2)ccc1NC(=O)c1ccco1	4	3%	-51	84	-2.2
CCOc1ccccc1NC(=O)COC(=O)c1cc(C(=O)OC)cc([N+](=O)[O-])c1	-2	2%	-38	-5	27
O=C(c1cc(-c2ccccn2)nc2c(Cl)cccc12)N1CCN(C(=O)C2CCCO2)CC1 (stereo not given)	0	-1%	22	-13	0.7
Cc1cccn2c(=O)c3cc(C(=O)NC4CCCCC4)c(=N)n(CCN4CCOCC4)c3nc12	.	8%	.	-8	-24
O=C(Nc1nc2c(s1)CCCC2)c1cccs1	2	5%	-42	10	.
O=C(CCNc1ccc(F)cc1)c1ccco1	-2	21%	-8	100	0.2
Cc1nc(SCC(N)=O)[nH]c(=O)c1CCC(C)C	8	-4%	-14	-4	-2.8
Cc1ccsc1C(=O)OCC(=O)NC1CCS(=O)(=O)C1 (stereo not given)	-1	2%	.	1	5.6
COc1ccc(-c2noc3c2-c2nc(-c4ccccc4Cl)sc2CC3)cc1	.	1%	.	18	-2.0
O=C(COc1ccc(S(=O)(=O)N2CCOCC2)cc1)Nc1ccccc1C(F)(F)F	3	5%	17	-19	0.9
O=C(CSc1nnc(-c2ccncc2)o1)c1ccc2c(c1)OCCO2	6	-3%	.	5	0.7
O=C(Nc1ccnn1C1CCN(C2CCCC2)CC1)c1ccccc1	.	.	.	-1	1.0
CCc1nc(SCC(=O)Nc2c(C)n(C)n(-c3ccccc3)c2=O)n[nH]1	3	4%	-18	2	0.0
CC(C)(C)OC(=O)N1CCC[C@H]1C(=O)N/N=C/c1ccc2ncccc2c1	.	-4%	.	0	-1.1
Cc1cc(=O)n2[nH]c(-c3cccnc3)nc2n1	-3	.	-29	-4	-1.4
COCOc1ccc(C2CC(=O)c3c(OCOC)cc(OCOC)cc3O2)cc1 (stereo not given)	.	-11%	.	-4	1.5
O=C(c1ccc(Cl)c(S(=O)(=O)N2CCCC2)c1)N1CCN(c2ccccc2F)CC1	28	6%	.	7	-0.6
Cc1ccc(C(=O)CC(c2cccs2)S(=O)(=O)c2ccc(C)cc2)cc1 (stereo not given)	-6	7%	-27	7	-3.5
O=C(NCCOC(=O)c1ccc([N+](=O)[O-])cc1)c1cccnc1	4	8%	.	27	0.9
O=C(NCc1cccc(Br)c1)c1cc(-c2ccccc2)nn1CC1CC(c2cccc([N+](=O)[O-])c2)=NO1 (stereo not given)	.	-1%	.	-4	5.4
CCCCNC(=S)Nc1ccc(C(F)(F)F)cc1	-21	3%	.	13	2.4

(cont.)
SMILES	Arbovirus inh	Mtb growth	YopH inh	Mtb betalactam	RecA splice inh	others
O=C(CCN1C(=O)c2ccccc2S1(=O)=O)Nc1ccc(F)c(F)c1F	.	.	.	1	-2.1
COc1ccc(-c2cc(=O)c3c(OC)c(OC)c(OC)c(OC)c3o2)cc1OC	-13&-14	-1%&-6%	-19	6	-1.9
CC(=O)c1nnn(-c2nc(N)nc(N(c3ccccc3)c3ccccc3)n2)c1C	-6	3%	-26	-1	4.1
O=C(Nc1nnc(C2=COCCO2)o1)C1CCCCC1	-2	3%	.	-1	1.2
Cc1ccc(C(c2sc3nc(C)nn3c2O)N2CC(C)OC(C)C2)cc1 (stereo not given)	10	-8%	-20	-6	-2.6
COC(=O)c1ccccc1NC(=S)N1CCN(c2ccc(OC)cc2)CC1	7	8%	.	9	0.6
CCOCCCNC(=O)c1ccc(NC(=O)C2=CSCCO2)cc1	.	.	.	5	-7.8
CSCc1ccc(C(=O)Nc2cccc(C)c2C)cc1	-5	7%	-38	66	-2.0
CC(=O)O[C@H]1C(=O)[C@@]2(C)C([C@H](OC(=O)c3ccccc3)[C@]3(O)C[C@H](O)C(C)=C1C3(C)C)[C@]1(OC(C)=O)CO[C@@H]1C[C@H]2O (stereo not given in full)	.	.	.	-1	0.9
CCOC(=O)c1c(C)[nH]c(C(=O)OCc2c(C)noc2C)c1C	-2	4%	-37	-3	-3.2
CCNC(=S)/N=C(/Nc1ccc(OC)cc1)Nc1nc(C)cc(C)n1	.	-9%	.	2	-0.8
CC(C)(C)NC(=O)CSc1nc(-c2ccccc2)cc(=O)[nH]1	14	-6%	.	-6	-1.6
Cc1cccc(N2CCN(C(=O)N3CCCCC3)CC2)c1C	3	8%	.	4	0.5
CCN(CC)C(=O)C(C)N(C#N)c1nc(Cl)nc(N(C)C)n1 (stereo not given)	-2	-6%	.	2	-1.0
Cc1ccc(OCCOC(=O)CN2C(=O)NC3(CCCC3)C2=O)cc1	.	.	.	-12	0.1
NC(CO)C(O)c1ccc([N+](=O)[O-])cc1 (stereo not given)	4	0%	.	12	-0.8	Arbovirus inh repeat=1
CCCCc1cc2c(s1)CCCC/C2=N/O	8	10%	-3	7	5.2
NC(=O)CSc1nc2cccnc2n1-c1ccc(F)cc1	.	.	.	1	-2.7
COc1cccc(CNC(=O)C(C(=O)NCc2cccc(OC)c2)c2ncc(C(F)(F)F)cc2Cl)c1	-1	-7%	.	-2	.
COc1ccc(Cl)cc1NC(=O)c1sc2nc(C)nc(N3CCOCC3)c2c1C	.	.	.	-1	3.4
CCOc1ccc(C(=O)NCC(=O)OCc2ccc(F)cc2Cl)cc1	-2	-1%	-19	-4	0.5
O=C(CNC(=O)Cc1ccc(Cl)cc1)NCC(=O)N1CCCCC1	.	.	.	-13	1.2
CS(=O)(=O)N(Cc1ccc(Cl)cc1)c1ccc(C(=O)NCCSc2ccccn2)cc1	11	13%	-23	6	3.3
O=C(NC1CC(=O)N(c2ccccc2)C1)C(=O)c1c[nH]c2ccccc12 (stereo not given)	.	.	.	2	-0.1
C=CCOc1ccc(/C=N/N2C(=O)C(CC(=O)Nc3ccc(F)cc3F)SC2=NC)cc1 (stereo not given)	-25	2%	-14	2	-0.5
COc1ccc(C2CC(C(F)(F)F)n3nc(C(=O)O)cc3N2)cc1 (stereo not given)	.	-6%	.	-8	1.5
CC1CCC(NC(=O)c2nn(C)c3c2CS(=O)(=O)c2ccccc2-3)CC1 (stereo not given)	.	.	.	-5	-0.3
CC(O)C(O)C(O)C(O)/C=N/NC(=O)c1ccccc1 (stereo not given)	2	-5%	-11	0	-2.0
COc1ccc(NC(=S)NCCCN2CCCC2)cc1Cl	-1	9%	.	-16	-1.1
CCOC(=O)c1ccc(CC(=O)c2ccc(O)cc2O)o1	20	8%	-13	-9	-5.6
O=C(NC1CCCCC1)N(C1=NCCCCC1)c1ccc(Br)cc1	-11	6%	-10	34	1.5
CC(CCc1ccco1)N(C)S(=O)(=O)c1csc(C(N)=O)c1 (stereo not given)	.	.	.	19	0.9
COC(=O)c1cc(Cl)c(NC(=O)/C=C/c2ccc(OC)cc2)cc1OC	-3	6%	-31	1	0.6
CCC(=O)Nc1ccc2c(c1)nc(CCN1CCC(C)CC1)n2C	.	.	.	-6	-0.8
CCN(c1ccccc1)S(=O)(=O)c1cc(CN2C(=O)c3cccnc3C2=O)ccc1OC	.	.	.	1	2.7
Cc1c(C(=O)c2ccccc2C(=O)O)sc2ccccc12	.	.	.	-2	-1.5
CC1C(=O)Nc2ccccc2N1C(=O)C1CC1 (stereo not given)	2	-8%	-27	-12	-3.5

Reprinted at random: 7 entries already listed.
SMILES	Arbovirus inh	Mtb growth	YopH inh	Mtb betalactam	RecA splice inh	others
CCN(c1ccccc1)S(=O)(=O)c1cc(CN2C(=O)c3cccnc3C2=O)ccc1OC	.	.	.	1	2.7
CCC(=O)Nc1ccc2c(c1)nc(CCN1CCC(C)CC1)n2C	.	.	.	-6	-0.8
COC(=O)c1cc(Cl)c(NC(=O)/C=C/c2ccc(OC)cc2)cc1OC	-3	6%	-31	1	0.6
Cc1c(C(=O)c2ccccc2C(=O)O)sc2ccccc12	.	.	.	-2	-1.5
CC(CCc1ccco1)N(C)S(=O)(=O)c1csc(C(N)=O)c1 (stereo not given)	.	.	.	19	0.9
O=C(NC1CCCCC1)N(C1=NCCCCC1)c1ccc(Br)cc1	-11	6%	-10	34	1.5
CC1C(=O)Nc2ccccc2N1C(=O)C1CC1 (stereo not given)	2	-8%	-27	-12	-3.5

Source: PubChem (several laboratories)
